Screening data deposited in PubChem by PCMD.
Biofilm kill mix = clotrimazole potentiators killing C. albicans biofilm, primary screen, 4-compound mixtures. AID 1242, 2008. 0.02% of 120,000 active. C. albicans biofilm persisters + clotrimazole, fluorescence viability; primary screen in compound mixtures of four per well. inhibition, % at 7.6 µM;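 active = inhibition above 30.3% in the primary screen of four-compound pools, then above 30% when the compound was retested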;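 also: compounds exposed to preformed 24 h biofilms for 48 h; the number belongs to the whole pool; some results filed as inactive read as strong as hits; inactives centre near 12; 0% = biofilm with clotrimazole alone and 100% = kill control; retested singly at about 60 µM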
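Assay system: C. albicans biofilms / Medium: RPMI/MOPS medium, pH 7.0 / Schedule: biofilm formation 24 h, compound exposure 48 h, 37 °C / Measured by: Alamar Blue fluorescence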
The depositor's hits bear a star.

#	Molecule	Biofilm kill mix
1	Cn1nc(C(C)(C)C)c([N+](=O)[O-])c1C(=O)NCCO	13
2	COc1cc(/C=C(\C#N)c2nc3ccc(C)cc3[nH]2)cc([N+](=O)[O-])c1O	15
3	COc1ccc(C2=CC3=C(Br)C(=O)C(C)(OC(=O)c4ccc(Cl)nc4)C(=O)C3=CO2)cc1 (stereo unspecified)	19
4	COCc1cc(C)n(CC(=O)Nc2cccc(C)c2)c(=O)c1C#N	16
5	COC(=O)c1ccc(COC(=O)c2cnccn2)cc1	6
6	O=C(CN1C(=O)C2C3C=CC(C4CC34)C2C1=O)Oc1ccccc1 (stereo unspecified)	19
7	Cc1ccc(S(=O)(=O)N2CCCCC2)cc1NC(=O)C1CC(=O)N(Cc2ccccc2)C1 (stereo unspecified)	15
8	COc1ccc(NC(=O)CSc2ccccn2)cc1	-2
9	CN(CC(=O)Nc1ccc(N2CCOCC2)cc1)CC(=O)Nc1ccc([N+](=O)[O-])cc1Br	5
10	CCC(O)(CC)C(=O)N/N=C/c1cc(Br)cc(Br)c1O	12
11	CN(C)c1ccc(-c2nnc(-c3cccs3)o2)cc1	14
12	N#Cc1ccsc1NC(=O)CN(Cc1ccccc1)Cc1ccccc1	15
13	CC1=C(c2ccc(Cl)cc2)[N+](=O)C(C)(C)N1[O-]	12
14	Cc1cc(C)cc(NC(=S)N2CCC(NC(=O)c3ccccc3C)CC2)c1	-1
15	O=c1[nH]c(Cc2ccccc2)nc2ccccc12	10
16	c1ccc(-c2cc(N3CCCCC3)c3ccccc3n2)cc1	15
17	O=C(COC(=O)c1ccc2c(c1)C(=O)N(c1cccc3ncccc13)C2=O)c1ccc(Cl)cc1	12
18	COC(=O)Nc1ccc(S(=O)(=O)Nc2ccc(C(=O)O)cc2)cc1	11
19	O=C(COC(=O)CNS(=O)(=O)c1c(Cl)cccc1Cl)Nc1ccccc1Sc1ccccc1	14
20	COC(=O)[C@@]1(Cc2ccc(OC)cc2)[C@H]2c3cc(C(=O)N(C)C)n(CCc4ccc(OC)c(Br)c4)c3C[C@H]2CN1C(=O)c1ccccc1	5
21	Cc1ccc(NC(=O)c2cc(=O)c3ccccc3o2)cc1S(=O)(=O)N1CCCCC1	16
22	CN(C)S(=O)(=O)c1cccc(NC(=S)NCCc2ccccn2)c1	10
23	CCN1CCCc2cc(CN(CCN3CCOCC3)C(=S)Nc3ccc(OC)c(OC)c3)ccc21	9
24	CC(C)(C)NC(=O)COC(=O)c1ccc(Cl)cc1O	16
25	O=C(Nc1cccc(-c2cnc3ccccc3n2)c1)c1ccncc1	6
26	O=C1NC(c2ccccc2)=CC(c2ccccc2)N1 (stereo unspecified)	16
27	CCN(Cc1cc(=O)n2ccsc2n1)c1cccc2ccccc12	21
28	CCc1ccc(-n2c(SCC(=O)Nc3cccc(S(=O)(=O)NC4=NCCCCC4)c3)nc3ccccc3c2=O)cc1	0
29	O=C(O)c1cccc(Oc2ncnc3sc4c(c23)CCCC4)c1	5
30	CCN1CCN(c2cc(C)c3cc(NC(=S)N4CCN(c5ccccc5)CC4)ccc3n2)CC1	16

Reformatted: three of the compounds above
11) CN(C)c1ccc(-c2nnc(-c3cccs3)o2)cc1
  Biofilm kill mix: 14
21) Cc1ccc(NC(=O)c2cc(=O)c3ccccc3o2)cc1S(=O)(=O)N1CCCCC1
  Biofilm kill mix: 16
13) CC1=C(c2ccc(Cl)cc2)[N+](=O)C(C)(C)N1[O-]
  Biofilm kill mix: 12

Next part
#	Molecule	Biofilm kill mix
31	COc1ccc(/C=N/c2oc(C)c(C)c2C#N)c(OC)c1	5
32	CCOC(=O)C1=C(C)N(CC(C)C)C(=O)C1	13
33	Cc1ccc(S(=O)(=O)N(C)C)cc1N	12
34	COC(=O)CC1C(=O)NCCN1C(=S)NC(=O)c1ccccc1[N+](=O)[O-] (stereo unspecified)	13
35	COc1ccc(CCNC(=O)Cn2cc(C(F)(F)F)cc(Cl)c2=O)cc1OC	4
36	CC1(C)Cc2nc3oc4c(=O)n(CC(=O)Nc5ccccc5)cnc4c3cc2CO1	18
37	CC(C)N(C(=O)COC(=O)c1cncc(Br)c1)C(C)C	4
38	O=C(NN1C(=O)c2ccccc2NC1c1ccco1)c1ccc([N+](=O)[O-])cc1 (stereo unspecified)	0
39	c1ccc(C2[C@H]3CN(Cc4cccnc4)[C@H](c4ccccc4)C34CC2(c2cccnc2)C4)cc1 (stereo partly specified)	14
40	O=C(c1ccco1)N1CCN(Cc2cn[nH]c2-c2ccc(F)cc2F)CC1	19
41	Cc1c(Cc2ccccc2)c(=O)oc2c(C)c(OCC(=O)Nc3ccc(C#N)cc3)ccc12	16
42	CCc1ccc(NC(=S)NC(=O)CC(C)C)cc1	17
43	COCCNC(=O)CN(Cc1cccs1)C(=O)CCC(=O)Nc1nccs1	8
44	COc1cccc(/C=N/n2nnnc2N)c1OCc1ccccc1Cl	11
45	CCOC(=O)C1=C(C)OC(N)=C(C#N)C1c1cncc(-c2ccc(F)cc2)c1 (stereo unspecified)	16
46	COc1ccc(C(=O)NNC(=O)Cn2nnc(-c3ccc(OC)c(OC)c3)n2)cc1	1
47	O=C(N/N=C/c1ccc2nccnc2c1)c1ccc(Br)cc1	16
48	O=C(CCc1ccccc1)NCCSCc1c(F)cccc1Cl	2
49	O=C(Nc1sc2c(c1C(=O)c1ccccc1)CCCC2)c1cccnc1	13
50	COc1ccc(N2CCN(C(=O)c3ccc(COc4ccc5c(C)cc(=O)oc5c4)cc3)CC2)cc1	9
51	Cc1ccc(OCC(=O)Nc2ccc3c(c2)OC(F)(F)O3)c([N+](=O)[O-])n1	21
52	O=C(N/N=C/c1cccnc1)c1[nH]ncc1Br	22
53	COc1ccc(-c2c(C#N)c(N)nc3sc(C(=O)c4ccc(C)cc4)c(N)c23)cc1	27
54	CCSc1nnc(NC(=O)c2cccnc2Cl)s1	13
55	CCCc1c(C)[nH]c2ccc(C(=O)O)cc2c1=S	31
56	CC1CCC2(CC1)C(Nc1cccc(Cl)c1)=NC(=S)N2CC#N (stereo unspecified)	10
57	COc1ccc(/C=N/N(Cc2ccccc2)c2ccccc2)cc1O	10
58	Cc1ccc(S(=O)(=O)N2CCSC2=Nc2ccccc2)cc1	17
59	CC(C)NCC(O)COC1C2CC3CC(C2)CC1C3 (stereo unspecified)	4
60	CCCN(CCC)CCNC(=O)CCC(=O)Nc1ccc2nc(N3CCN(C)CC3)cc(C)c2c1	7

As entered above.
no. 39 in Biofilm kill mix: 14
no. 32 in Biofilm kill mix: 13
no. 36 in Biofilm kill mix: 18

Remaining list, next part.
#	Molecule	Biofilm kill mix
61	CCCCn1c(=O)c(C(C)=O)c(O)c2ccccc21	9
62	CN(CC(=O)Nc1ccc(S(=O)(=O)N2CCCC2)cc1)CC(=O)Nc1ccc(F)c(F)c1F	8
63	COc1cccc(N=CC=C2OC(C)(C)C(C)(C)O2)c1	5
64	CCN(CC)C(=O)c1cn(CCC#N)nc1-c1ccc2c(c1)OCCO2	13
65	COc1cccc(C(=O)Cn2c(NCCO)nc3ccccc32)c1	12
66	Cc1cccc(OCC(=O)Nc2ccc3nc(C)sc3c2)c1	9
67	O=C(CN1CCOCCOCCOCCOCC1)Nc1ccccc1	2
68	O=C(c1c[nH]c2ccccc12)N1CCOCC1	8
69	CCc1ccc[n+](-c2nc3ccccc3nc2C(=C=[N-])C#N)c1	28
70	Cc1ccc2nc(C)c(C(=O)N/N=C/c3cccc([N+](=O)[O-])c3)cc2c1	16
71	CC1CCN(C2CC(=O)N(c3ccc(Br)cc3Br)C2=O)CC1 (stereo unspecified)	2
72	O=C(CN1C(=O)CCC1=O)NC(=O)NC1CCCC1	8
73	O=C(Nc1cccc(-c2nc3ccccc3s2)c1)C1=COCCO1	12
74	COc1cc(/C=N\Nc2ccc([N+](=O)[O-])cn2)ccc1OCC(=O)O	22
75	Cc1nn(-c2ccccc2)c(N2CCCC2)c1/C=N/Nc1ccc(S(=O)(=O)Nc2ccccc2)cc1[N+](=O)[O-]	-3
76	COC(=O)COc1cccc(NC(=O)c2cccc(C)c2)c1	6
77	c1cncc(CNc2ncnc3sc4c(c23)CCCC4)c1	13
78	COCC(=O)Nc1nnc(Cc2ccc(OC)cc2)s1	20
79	Cc1c(Cl)cccc1NC(=O)CC1SC(=NCC2CCCO2)NC1=O (stereo unspecified)	4
80	CC(C)(C)c1ccc2c(c1)C(=O)c1ccccc1C2=O	19
81	CCOc1ccc(C(=O)NC2CCN(C(=S)Nc3ccccc3C)CC2)cc1	2
82	Cc1ccccc1N1C(=O)CC(c2c[nH]c3ccccc23)C1=O (stereo unspecified)	19
83	Cc1cc(=O)[nH]n(CCO)c1=O	22
84	O=C(O)CCn1nnc2ccccc21	18
85	CCOC(=O)N1CCc2c(sc3nc[nH]c(=O)c23)C1	-1
86	CC(=O)Nc1cccc(NC(=O)Nc2cccc(Cl)c2C)c1	14
87	COc1cccc(C(=O)NCCSc2ccc(Br)cc2)c1	11
88	CCC(=O)N1CCN(c2ccc(NC(=O)c3ccccc3)cc2)CC1	5
89	Cc1ccccc1CSc1nnc(NC(=O)Cc2cccs2)s1	19
90	O=C(NC(=S)N1CCN(c2ccc([N+](=O)[O-])cc2Cl)CC1)c1ccco1	7
91	CCn1c(C)cc(C=C2C(=O)c3ccccc3C2=O)c1C	9
92	Brc1ccc(C2NCCS2)cc1 (stereo unspecified)	20
93	CCOC(=O)c1nc(NCc2ccccc2)c2ccccc2n1	1
94	CCS(=O)(=O)c1nc(S(=O)(=O)c2ccc(Cl)cc2)c(NCCOC)s1	15
95	COc1ccc(NC(=S)Nc2ccccc2Cl)cn1	13
96	Cc1nnc(NC(=O)CSc2nc3ccccc3o2)s1	11
97	Cc1ccc(Oc2ccc(Cl)cc2NC(=O)c2ccc(F)cc2F)cc1	11
98	COc1cccc(NC(=O)C(OC(=O)c2ccc([N+](=O)[O-])o2)c2ccccc2)c1 (stereo unspecified)	7
99	COc1cc(/C=C2\C(=O)N(c3ccccc3)N=C2C)ccc1Oc1ccc([N+](=O)[O-])cc1[N+](=O)[O-]	13
100	COc1ccc(NC(=O)Nc2ncccc2C)cc1	8
101	CCOC(=O)C1CCC2(CC1)C(C#N)=C(N)Oc1n[nH]c(C)c12 (stereo unspecified)	17
102	C/C(=N\NC(=S)NCc1ccccc1)c1ccccc1	6
103	CCOc1ccc(CN2CCN(Cc3cccc4nonc34)CC2CCO)cc1 (stereo unspecified)	16
104	CC1=C(C(=O)OCC(Cl)(Cl)Cl)N2C(=O)C(NC(=O)Cc3ccccc3)C2SC1 (stereo unspecified)	8
105	COc1ccc(CN(C)C(=O)COC(=O)c2c(-c3ccccc3Cl)noc2C)cc1	3
106	Cc1cc(C)c(C)c(S(=O)(=O)N2CCN(c3ccc(O)cc3)CC2)c1C	5
107	O=C(COc1cc(F)ccc1[N+](=O)[O-])Nc1cccc(Br)c1	20
108	Cc1ccc(S(=O)(=O)N2CCC(NC(=O)c3ccccc3)CC2)cc1	-3
109	COc1ccnc(CSC(N)=Nc2ccc(F)cc2)c1	6
110	O=C(N/C(=C/c1cccs1)C(=O)N1CCOCC1)c1ccccc1	8

In the list so far, these have an aryl methoxy group.
#	Molecule	Biofilm kill mix
2	COc1cc(/C=C(\C#N)c2nc3ccc(C)cc3[nH]2)cc([N+](=O)[O-])c1O	15
3	COc1ccc(C2=CC3=C(Br)C(=O)C(C)(OC(=O)c4ccc(Cl)nc4)C(=O)C3=CO2)cc1 (stereo unspecified)	19
8	COc1ccc(NC(=O)CSc2ccccn2)cc1	-2
20	COC(=O)[C@@]1(Cc2ccc(OC)cc2)[C@H]2c3cc(C(=O)N(C)C)n(CCc4ccc(OC)c(Br)c4)c3C[C@H]2CN1C(=O)c1ccccc1	5
23	CCN1CCCc2cc(CN(CCN3CCOCC3)C(=S)Nc3ccc(OC)c(OC)c3)ccc21	9
31	COc1ccc(/C=N/c2oc(C)c(C)c2C#N)c(OC)c1	5
35	COc1ccc(CCNC(=O)Cn2cc(C(F)(F)F)cc(Cl)c2=O)cc1OC	4
44	COc1cccc(/C=N/n2nnnc2N)c1OCc1ccccc1Cl	11
46	COc1ccc(C(=O)NNC(=O)Cn2nnc(-c3ccc(OC)c(OC)c3)n2)cc1	1
50	COc1ccc(N2CCN(C(=O)c3ccc(COc4ccc5c(C)cc(=O)oc5c4)cc3)CC2)cc1	9
53	COc1ccc(-c2c(C#N)c(N)nc3sc(C(=O)c4ccc(C)cc4)c(N)c23)cc1	27
57	COc1ccc(/C=N/N(Cc2ccccc2)c2ccccc2)cc1O	10
63	COc1cccc(N=CC=C2OC(C)(C)C(C)(C)O2)c1	5
65	COc1cccc(C(=O)Cn2c(NCCO)nc3ccccc32)c1	12
74	COc1cc(/C=N\Nc2ccc([N+](=O)[O-])cn2)ccc1OCC(=O)O	22
78	COCC(=O)Nc1nnc(Cc2ccc(OC)cc2)s1	20
87	COc1cccc(C(=O)NCCSc2ccc(Br)cc2)c1	11
95	COc1ccc(NC(=S)Nc2ccccc2Cl)cn1	13
98	COc1cccc(NC(=O)C(OC(=O)c2ccc([N+](=O)[O-])o2)c2ccccc2)c1 (stereo unspecified)	7
99	COc1cc(/C=C2\C(=O)N(c3ccccc3)N=C2C)ccc1Oc1ccc([N+](=O)[O-])cc1[N+](=O)[O-]	13
100	COc1ccc(NC(=O)Nc2ncccc2C)cc1	8
105	COc1ccc(CN(C)C(=O)COC(=O)c2c(-c3ccccc3Cl)noc2C)cc1	3
109	COc1ccnc(CSC(N)=Nc2ccc(F)cc2)c1	6

An excerpt; count on the stated rates, not on these rows.
